# Cruzain inh noDet: qHTS Assay for Promiscuous and Specific Inhibitors of Cruzain (without detergent); purified cruzain, Z-FR-AMC fluorescence, no detergent; Potency, µM, for the others: max response, negative = inhibition, actives largely listed as inhibitors; 2.3% of 200,000 active; AID 1476, 2009;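 further: plate controls were enzyme without inhibitor for no effect and buffer without enzyme for full effect; nearly all actives have a fitted effect of over 40% in size; top concentration of the series not given in the record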
# Target sequence (P25779 123-467 limits assumed): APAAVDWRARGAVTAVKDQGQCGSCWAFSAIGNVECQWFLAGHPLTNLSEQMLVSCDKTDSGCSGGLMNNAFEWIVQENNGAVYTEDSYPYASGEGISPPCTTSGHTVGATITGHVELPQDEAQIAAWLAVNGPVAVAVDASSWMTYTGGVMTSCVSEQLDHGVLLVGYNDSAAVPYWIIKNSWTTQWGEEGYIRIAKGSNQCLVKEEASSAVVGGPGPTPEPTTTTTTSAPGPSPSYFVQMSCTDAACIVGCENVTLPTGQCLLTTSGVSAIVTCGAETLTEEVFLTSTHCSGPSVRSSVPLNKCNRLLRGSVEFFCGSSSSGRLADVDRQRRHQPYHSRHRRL
#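 Purified cruzain at 1.5 nM, pre-incubated 15 min with compound at room temperature in 100 mM sodium acetate pH 5.5, 5 mM DTT, 0.00005% Triton X-100. Reaction started with 2 uM Z-FR-AMC; AMC fluorescence increase over 60 s gives rate.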
# MARV entry inh: qHTS for inhibitors of binding or entry into cells for Marburg Virus | Marburg virus pseudotyped entry inhibition, cell reporter; control for the full effect not named in the record; about a third of the inactives were read at about 46 µM | Potency, µM (series often up to 37.8 µM), for inactives: top-dose activity change, negative = inhibition, actives largely listed as inhibitors | 1.8% of 300,000 active | AID 540276, 2011; active = well fitted inhibition curve with a large enough effect; inconclusive = small, poorly fitted or top-dose-only effect, or effect the other way; inactive = flat fitted curve, though single readings scatter; tested in HEK293 cells; about a fifth of its hits are not listed in these tables; further: on the % scale 0 is the no-effect control and ±100 the full control effect; luciferase read-out
# RE007 growth inh: qHTS Assay for Inhibitors of the HIV-1 protein Vpr | S. pombe RE007 Vpr strain, BacTiter-Glo ATP luminescence, 24 h; control for the full effect not named in the record | Potency, µM (top dose mostly 92.2 µM), inactives show at the highest dose activity change, negative = less growth | 0.21% of 360,000 active | AID 651644, 2012; active = well fitted falling curve with a large enough effect; inconclusive = small, poorly fitted or top-dose-only effect; inactive = no such curve, though single readings can be large or run the other way;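 further: on the % scale 0 is the no-effect control and ±100 the full control effect; nearly all actives have a fitted effect of over 50% in size; the assay follows cell death caused by Vpr and the record does not say whether a fall means rescue or toxicity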
#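 Fission yeast RE007 carrying one integrated HIV-1 vpr copy, seeded at OD 0.01 in PMG+AL medium with 23 nL pinned compound. Grown 24 h at 30 degrees; viability read by BacTiter-Glo luminescence after 5 min.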
# NS1 function inh: qHTS Assay for Inhibitors of Influenza NS1 Protein Function | 0.4% of 270,000 active | Potency, µM (series often up to 46.1 µM), for the others: at the highest dose activity, positive = more growth | S. cerevisiae slowed by influenza A NS1, growth recovery by OD600; active means well fitted rising curve with a large enough effect; inconclusive means small, poorly fitted or top-dose-only effect; inactive means no such curve, though single readings can be large or run the other way; further: nearly all actives have a fitted effect of over 50% in size
#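 Recovery from NS1-induced slow growth read by OD600 in budding yeast switched to galactose assay medium (pH 6.0, -URA) at 1:100 dilution. Compound 23 nl per well; the matching strain lacking NS1 serves as control.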
# 2A StopGo: High Throughput Screening for Foot and Mouth Disease Virus Antivirals; human cells with a luciferase reporter of 2A StopGo recoding; control for the full effect not named in the record; Potency, µM (series often up to 57.9 µM), inactives show at the highest dose signal change, negative = less light; 1.2% of 410,000 active; AID 1159524, 2015; active = well fitted falling curve with a large enough effect; inconclusive = small, poorly fitted or top-dose-only effect; inactive = no such curve, though single readings can be large or run the other way; tested in HEK293T cells; further: on the % scale 0 is the no-effect control and ±100 the full control effect; nearly all actives have a fitted effect of over 45% in size; luciferase light after 4 h
# Lassa entry inh: qHTS for Inhibitors of binding or entry into cells for Lassa Virus; 1.2% of 300,000 active; Potency, µM (series often up to 37.9 µM), for inactives: at the highest dose activity change, negative = inhibition, actives largely listed as inhibitors; Lassa virus pseudotype entry inhibition, cell reporter; control for the full effect not named in the record; active means well fitted inhibition curve with a large enough effect; inconclusive means small, poorly fitted or top-dose-only effect, or effect the other way; inactive means flat fitted curve, though single readings scatter; tested in HEK293 cells; further: on the % scale 0 is the no-effect control and ±100 the full control effect; nearly all actives have a fitted effect of over 50% in size; luciferase read-out
# SARS PLP yeast: qHTS of Yeast-based Assay for SARS-CoV PLP | S. cerevisiae expressing SARS-CoV PLpro, growth rescue; control for the full effect not named in the record | Potency, µM (highest dose often 32.9 µM), inactives show top-dose activity, positive = growth rescue | 0.19% of 330,000 active | AID 485353, 2010; active means well fitted rising curve with a large enough effect; inconclusive means small, poorly fitted or top-dose-only effect; inactive means no such curve, though single readings can be large or run the other way; further: 0% is about no effect; nearly all actives have a fitted effect of over 55% in size; growth read by luminescence after 48 h
# Cruzain Triton: qHTS Assay for Promiscuous and Specific Inhibitors of Cruzain (with detergent); purified cruzain, Z-FR-AMC fluorescence, 0.01% Triton; Potency, µM, for inactives: max response, negative = inhibition, actives largely listed as inhibitors; 0.43% of 200,000 active; AID 1478, 2009;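 further: plate controls were neutral wells for no effect and buffer without enzyme for full effect; nearly all actives have a fitted effect of over 40% in size; top concentration of the series not given in the record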
#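 Compounds were screened in titration against cruzain (1.5 nM) with 0.01% Triton X-100 to counter colloidal aggregation. Activity was the AMC fluorescence increase over 60 s after adding 2 uM Z-FR-AMC at pH 5.5.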
# * hit, by the source's call; ? = inconclusive; . = no result given; & = joins results of further samples; [ ] = dose if it differs, or a comment. Unless noted, the call rests on the fitted dose curve; in most records, active means well fitted curve in the direction sought with a large enough effect; inconclusive means small, poorly fitted or top-dose-only effect, or another doubt; inactive means no such curve, though single readings can be large; an effect the other way counts as inactive or inconclusive. Potency means the concentration at half of the fitted maximal effect.
molecule	Cruzain inh noDet	MARV entry inh	RE007 growth inh	NS1 function inh	2A StopGo	Lassa entry inh	SARS PLP yeast	Cruzain Triton
CCCC(C(=O)NC1CCCC1)N(C(=O)Cn1nnc(-c2ccc(C)o2)n1)c1ccccc1OC (stereo not drawn)	?	?	-2%	4%	12%	-22%	1%	-6.8%
CCOC(=O)N1CCN(C(=O)COC(=O)C2CCN(S(=O)(=O)c3c(C)c(C)cc(C)c3C)CC2)CC1	.	-10%	-10%	.	0%	14%[46.1 µM]	1%	.
CCOC(=O)C(Cc1ccccc1)NC(=O)CCc1nnc2ccc(N3CCCC3)nn12 (stereo not drawn)	.	26%[46.1 µM]	1%	-7%	1%	19%[46.1 µM]	1%	.
CC1=C(C(=O)OCc2ccccc2)C(c2ccc(Cl)cc2Cl)NC(=O)N1CCCCCC(=O)O (stereo not drawn)	?	0%	5%	-8%	-23%	-21%	-2%	?
CN1CCN(c2ccccc2NC(=O)c2ccc(N3CCCC3)c([N+](=O)[O-])c2)CC1	.	?	0%	.	?	?	0%	.
Fc1ccccc1Oc1ncnc2c1oc1ccccc12	-13%	.	.	.	14%	-19%[46.1 µM]	.	-0.1%
Cc1cc(NC(=O)C2C3C=CC(C3)C2C(=O)O)no1 (stereo not drawn)	5%	-5%	14%	0%	-3%	19%	2%	-0.8%
CCc1ccc(-c2cc(C)no2)cc1S(=O)(=O)Nc1cc(C)on1	.	.	5%	-24%	21%	.	1%	.
COc1ccccc1NC(=O)N(Cc1cc2cc(OC)c(OC)cc2[nH]c1=O)CC1CCCO1 (stereo not drawn)	?	5%&5%	8%	-5%	-26%	-17%	13%	-8.1%
O=C(Nc1ccc2[nH]ncc2c1)c1ccccc1	.	.	-15%	3%	60%[activator]	.	-6%	.
CCOc1ccc(S(=O)(=O)N(CC(=O)Nc2ccc3c(c2)OCO3)c2ccc(C)cc2)cc1	1%	.	.	.	14%	-6%[46.1 µM]	.	-7.6%
COc1ccc(COc2ccc3ccc(=O)oc3c2)cc1	.	.	8%	-4%	52%[activator]	.	1%	.
CCOC(=O)C1SC2(C(F)(F)F)CC1(O)c1c(C)cc(C)nc1O2 (stereo not drawn)	-5%	1%	-7%	-5%	-14%	6%	1%	1.9%
COc1cc(CN(C)C(C)C(=O)Nc2ccc([N+](=O)[O-])cc2Cl)ccc1OC(F)F (stereo not drawn)	-5%	?	4%	-15%	?	?	27%	-6.9%
CCOC(=O)CCN(Cc1ccccc1)S(=O)(=O)c1csc(C(N)=O)c1	-8%	.	-11%	-18%	21%&12%	1%[46.1 µM]	0%	0.6%
COc1ccccc1N1C(=O)c2ccc(C(=O)Nc3ccc(C(=O)O)cc3)cc2C1=O	.	2%	2%	4%	-6%	0%	2%	.
Cc1ccc(S(=O)(=O)NC(=NC2CCCCC2)c2ccc(Cl)cc2)cc1	.	-11%[46.1 µM]	9%	11%	-7%	-6%	-4%	.
COc1cccc(C(=O)Nc2ccc(NC(=O)C(C)(C)C)cn2)c1	-7%	13µM*	1%	-2%	-69%	7.1µM*	-6%	3.2%
CCC(CC)NC(=O)CCc1nc2ccccc2c(=O)[nH]1	6%	9%	11%	1%	18%	13%	-5%	0.9%
O=C(O)C1CC=CCC1C(=O)NNS(=O)(=O)c1ccccc1 (stereo not drawn)	.	?	2%	0%	-11%	?	-1%	.
O=[N+]([O-])c1ccc(CSc2ccc(S(=O)(=O)N3CCOCC3)cn2)cc1	.	?	-10%	.	?	3%	0%	.
COc1ccc(C2CC(=O)Oc3cc(OC)ccc32)cc1 (stereo not drawn)	-6%	.	-6%	.	-17%	.	8%	-1.5%
O=C1NC(=S)NC(=O)C1C1CCCCC1	.	.	0%	6%	-7%	.	1%	.
NC(=O)c1ccsc1NC(=O)CCS(=O)(=O)c1ccc(Cl)cc1	.	-6%	6%	.	0%	1%	1%	.
CC(C)c1ccccc1OS(N)(=O)=O	.	.	-8%	-8%	-2%	.	3%	.
O=C(NC(NC(=S)Nc1ccccc1C(=O)O)C(Cl)(Cl)Cl)c1cccc([N+](=O)[O-])c1 (stereo not drawn)	-6%	24%	-10%	?	-4%	-1%	3%	-11%
CCn1c(=O)cc(N2CCOCC2)[nH]c1=O	.	-12%[46.1 µM]	10%	.	-2%	1%	0%	.
CC1(C)Cc2c(c(=S)nc(-c3ccccc3)n2Cc2cccnc2)CO1	.	16%	9%	8%	5%	0%	0%	.
CC1CCCCC1NC(=O)c1ccc2c(c1)OCCO2 (stereo not drawn)	.	11%	8%	.	49%[activator]	11%	-6%	.
CCCc1nc2c(nnn2Cc2ccccc2)c(=O)[nH]1	-2%	6%	12%	-2%	23%	-11%	1%	1.7%
Cc1ccc(N2C(=O)N(CC(=O)NCc3ccc(Cl)cc3)C(=O)C2C)cc1 (stereo not drawn)	3%	3%[46.1 µM]	0%	-13%	-15%	?	1%	-0.5%
CCc1ccc2c(c1)[C@H]1OCC[C@H]1[C@@H](c1cccs1)N2	-3%	?	-13%	-31%	-20%	-13%	-33%	-3.3%
COc1ccc2[nH]cc(CCN=C(NC(=O)c3ccccc3C)Nc3nc(C)cc(C)n3)c2c1	-1%	?	.	.	-26%	?	.	6.1%
COc1cccc(C(=O)N=c2sc3c(C)ccc(OC)c3n2C)c1	?	.	3%	10%	55%[activator]	.	4%	-23%
Cc1noc2ncnc(N3CCN(c4ccc(F)cc4)CC3)c12	.	-21%	4%	.	?	-3%	-3%	.
CCCCN(C(=O)CCCc1nc2ccccc2s1)c1c(N)n(CC(C)C)c(=O)[nH]c1=O	.	1%	-1%	.	5%	2%	.	.
COc1cccc(C(=O)Nc2ccccc2N2CCOCC2)c1	-3%	4%	3%	-33%	-7%	9%	2%	3.8%
CCN(CCCNC(=O)Cn1ncc2c(=O)oc3ccccc3c21)c1cccc(C)c1	-11%	4%	-5%	-9%	?	.	-4%	0.5%
Cc1ccc2nsnc2c1NC(=O)c1cncc(Br)c1	.	-9%[46.1 µM]	7%	.	3%	11%[46.1 µM]	-3%	.
COC(=O)c1cc(NC(=O)C2CCCN(S(=O)(=O)c3c(C)n[nH]c3C)C2)cc(C(=O)OC)c1 (stereo not drawn)	-1%	-6%&-6%[46.1 µM]	.	.	0%	12%[46.1 µM]	4%	-2.9%
Cc1oc(-c2ccccc2F)nc1CN1CCC(C(=O)NCCc2ccccc2)CC1	-6%	-13%[46.1 µM]	.	.	1%	-7%[46.1 µM]	.	0.2%
O=C(NCCOC12CC3CC(CC(C3)C1)C2)c1cccc(Br)c1	3%	-28%	?	-64%	41%[activator]	?	-6%	3.3%
Cc1nc2nc(SCc3ccc([N+](=O)[O-])cc3)[nH]c2cc1Br	.	.	3%	2%	-19%	.	0%	.
CC(C)(C)c1ccc(C(=O)NNC(=O)C2CCCCC2)cc1	-6%	19%	4%	-6%	33%[activator]	0%	-15%	-0.1%
CSc1ncccc1C(=O)NCc1ccccc1Cl	.	3%[46.1 µM]	16%	-4%	3%	-15%	0%	.
COc1cc(C(=O)NCc2ncccc2C)ccc1OC1CCN(C(C)=O)CC1	.	1%	-10%	-2%	13%	6%	25%	.
CCOC(=O)c1[nH]c(C)c(C)c1C	0%	-5%	17%	-3%	-16%	-8%	-11%	1.1%
Cc1cccc(CCN(C(=O)Cc2cccs2)C(C(=O)NC2CCCCC2)c2cccnc2)c1 (stereo not drawn)	-12%	?	8%	2%	13%	-5%	-3%	10%
O=C(O)c1cccnc1SCc1ccccc1Cl	.	1%[46.1 µM]	16%	1%	28%	21%	-1%	.
Clc1ccc(-c2csc(N3CCC(c4ccccc4)C3)n2)cc1 (stereo not drawn)	-7%	20%[46.1 µM]	-4%	8%	16%	?	1%	2.8%
Cc1cccc(NC(=O)CSc2nnc(C)c(=O)n2N)c1	.	1%[46.1 µM]	3%	.	7%	.	1%	.
COc1ccccc1-c1ccc(SCc2ccccc2F)nn1	.	3%[46.1 µM]	-2%	.	32%[activator]	?	-4%	.
Cn1c(=O)c(-c2cccc(Cl)c2)c(O)c2ccccc21	.	23%	-16%	.	-10%	-1%	.	.
CCN(c1ccccc1)S(=O)(=O)c1cccc(C(=O)Nc2ccc(C)cn2)c1	.	.	-7%	-27%	-27%	.	-6%	.
Cn1c2c(c(=O)n(C)c1=O)CN(CC1CCCO1)CN2 (stereo not drawn)	-12%	-8%	7%	-3%	-14%	-6%	-1%	2.7%
O=C1N/C(=C/c2ccc(N3CCOCC3)cc2)C(=O)N1Cc1ccc(F)cc1	3%	18%	-11%	1%	5%	?	0%	1.6%
Cc1ccc(Sc2ncccc2[N+](=O)[O-])cc1	.	-4%[46.1 µM]	3%	2%	0%	?	5%	.
COCCNC(=O)CN(c1cc(C(F)(F)F)ccc1Cl)S(C)(=O)=O	-7%	13%	-3%	0%	-11%	?	4%	2.1%
COc1ccccc1C(=O)COC(=O)C1CCN(S(=O)(=O)c2ccc(C)c(C)c2)CC1	.	16%	-12%	.	-11%	?	-6%	.
Cc1ccc(C(CC(=O)N2CCNCC2)c2ccccc2)c(O)c1C (stereo not drawn)	.	-1%	-6%	-1%	-11%	.	-2%	.
[O-]C1=N/[N+](=C/c2ccc(Cl)c(Cl)c2)CC1	-15%	11%	-2%	-9%	8%	0%	-11%	-3.2%
COc1cc(NC(=O)c2ccc([N+](=O)[O-])cc2)ccc1NC(=O)C(C)C	.	-18%[46.1 µM]	0%	-6%	-8%	0%	0%	.

# Bioassay records from PubChem BioAssay.
